Source: PubChem (National Center for Advancing Translational Sciences (NCATS))
D2 potentiator: Beta-Arrestin HTS for Positive Allosteric Modulators of the Human D2 Dopamine Receptor: Potentiators; D(2) dopamine receptor (Homo sapiens), P14416; DiscoveRx D2 beta-arrestin cells, luminescence, 90 min; 100% = 57 uM dopamine signal; potentiation, % (test concentration not listed); actives 0.23% (n = 360,000); active = potentiation of 50% or more; inconclusive = 30% to 50%; inactive = 30% or less;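 further: compound concentration not given in the record; tested on top of an EC20 dose of dopamine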
Target sequence (P14416 whole entry, looked up): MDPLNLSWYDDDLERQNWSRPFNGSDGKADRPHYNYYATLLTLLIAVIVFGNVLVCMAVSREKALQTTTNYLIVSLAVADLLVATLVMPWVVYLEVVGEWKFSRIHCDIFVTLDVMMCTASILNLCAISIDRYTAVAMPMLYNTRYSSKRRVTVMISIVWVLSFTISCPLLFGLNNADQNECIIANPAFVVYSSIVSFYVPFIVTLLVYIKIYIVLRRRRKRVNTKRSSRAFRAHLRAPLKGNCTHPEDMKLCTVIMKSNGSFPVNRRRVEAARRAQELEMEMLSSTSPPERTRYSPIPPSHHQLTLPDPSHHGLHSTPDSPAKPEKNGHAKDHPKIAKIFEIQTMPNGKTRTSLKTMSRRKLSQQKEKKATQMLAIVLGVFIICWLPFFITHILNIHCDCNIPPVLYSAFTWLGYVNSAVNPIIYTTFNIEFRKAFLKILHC
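PathHunter beta-arrestin assay in DiscoveRx D2 cells. Compounds were added with an EC20 of dopamine (50 nM final) for 90 min at 37 deg C. Luminescence was read 1 h after detection reagent, with 57 uM dopamine as the EC100 control.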
D2 ag: Beta-Arrestin HTS for Positive Allosteric Modulators of the Human D2 Dopamine Receptor: Agonists; DiscoveRx PathHunter D2 beta-arrestin, luminescence, 90 min; 100% = 57 uM dopamine signal; D(2) dopamine receptor (Homo sapiens), P14416; actives 0.084% (n = 360,000); activation, % (concentration not given with the values); in the data active = activation above about 40%; inconclusive = about 15% to 40%; inactive = below about 15%; further: compound concentration not given in the record; the text of the record calls up to 30% inactive
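DiscoveRx PathHunter D2 beta-arrestin cells (2,100/well) attached overnight, then compound-stimulated 90 min at 37 C in HBSS/10 mM HEPES/0.1% Tween-20 buffer; beta-galactosidase complementation read by luminescence after 1 h at ambient temperature. Dopamine 57 uM final (EC100) as control.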
Six1-Eya2 inh: qHTS Assay for Inhibitors of the Six1/Eya2 Interaction. AlphaScreen GST-Six1/His-Eya2 binding, biochemical; hits give low values; control for the full effect not named in the record. Homeobox protein SIX1 (Homo sapiens) + Protein phosphatase EYA2 (Homo sapiens), …. actives 0.56% (n = 360,000). activity change, % (no concentration beside the values); in the data active = activity change below about -65%; inconclusive = about -30% to -65%; inactive = above about -30%; further: on the % scale 0 is the no-effect control and ±100 the full control effect; compound concentration not given in the record
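AlphaScreen luminescence read after one hour at 37 °C in darkness. Pin-transferred compounds met GST-Six1 and His-Eya2 protein (5X stock 250 nM/500 nM) plus glutathione donor and Ni-chelate acceptor beads (5X, 50 ug/mL).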
TRPV1 PAM: HTS Assay for Compounds that Act as Potentiators of the Vanilloid Receptor 1. Transient receptor potential cation channel subfamily V member 1 (Homo sapiens), Q8NER1. TRPV1-expressing cells, Fluo-8 calcium influx, capsaicin EC20 potentiation; host cell line not named in the record; control for the full effect not named in the record. potentiation, % at 8.33 µM. actives 0.02% (n = 320,000). AID 540277, 2011; active means potentiation above 80%; inconclusive means 30% to 80%; inactive means below 30%; further: 0% is about no effect
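Fluo-8 calcium influx in TRPV1-expressing cells, kinetic read (ex 480/em 520 nm). Compound added and read 3 min for agonist activity, followed by capsaicin at EC20 final and 2 min further read for enhancement.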
CtBP-E1A inh: qHTS Assay for Inhibitors of the CtBP/E1A Interaction; CtBP / adenovirus E1A interaction (AlphaScreen); AlphaScreen GST-E1A/His-CtBP binding, 1536-well; hits give low values; control for the full effect not named in the record; activity change, % (test concentration not listed); actives 0.49% (n = 340,000); AID 651724, 2012; in the data active means activity change below about -65%; inconclusive means about -30% to -65%; inactive means above about -30%; further: on the % scale 0 is the no-effect control and ±100 the full control effect; compound concentration not given in the record
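GST-E1A and His-tagged CtBP (125 nM each as 5X stock) were preincubated with pin-transferred compound for 2 h at 37 °C in the dark, then glutathione donor and nickel acceptor beads were added for 1 h before AlphaScreen reading.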
Sfp PPTase inh: qHTS Assay for Inhibitors of Bacillus subtilis Sfp phosphopantetheinyl transferase (PPTase); 4'-phosphopantetheinyl transferase ffp (Bacillus subtilis), Q9F4F7; Potency, µM, for the others: max response, negative = inhibition, actives largely listed as inhibitors; Biochemical Sfp PPTase activity, qHTS; actives 3.5% (n = 310,000); active means well fitted inhibition curve with a large enough effect; inconclusive means small, poorly fitted or top-dose-only effect, or another doubt; inactive means no such curve, though single readings can be large or run the other way;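 further: the enzyme is Sfp with the accession as filed and its product quenches rhodamine fluorescence; potency means the concentration at half of the fitted maximal effect; 0% = enzyme reaction without inhibitor and -100% = no enzyme wells; top concentration of the series not given in the record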
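Reaction rates are the 30-min fluorescence difference (ex 525, em 598 nm) in wells containing 15 nM Sfp, 5 uM rhodamine-CoA and 12.5 uM BHQ-2-YbbR at pH 7.6 with 10 mM MgCl2.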
PINK1 modulator: A Quantitative High throughput Screen to Identify Chemical Modulators of PINK1 Expression; PINK1 immunofluorescence, high-content cytometry, 24 h; Potency, µM (series often up to 76.6 µM), without a hit: top-dose activation (PINK1 increase), actives largely listed as activators; actives 0.2% (n = 410,000); AID 624263, 2012; active = well fitted activation curve with a large enough effect; inconclusive = small, poorly fitted or top-dose-only effect; inactive = flat fitted curve, though single readings scatter; cell line not stated here;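 further: potency means the concentration at half of the fitted maximal effect; % of control where 0% means no effect; nearly all actives have a fitted effect of over 65% in size; a mitochondrial uncoupler was the plate control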
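Compound titrations (5 concentrations, 24 h) on a stable cell line; DMSO and CCCP controls. Endpoint: fixed-cell PINK1 immunofluorescence with mitochondrial, cell and nuclear markers, scanned by microplate cytometer.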
Starred values were filed as active, the others as inactive; ? = inconclusive; nt = no result given; & = joins results of further samples; ! = not confirmed by another sample; [ ] = another dose, or the depositor's remark.

SMILES	D2 potentiator	D2 ag	Six1-Eya2 inh	TRPV1 PAM	CtBP-E1A inh	Sfp PPTase inh	PINK1 modulator
O=C(c1cccnc1)N(Cc1ccccc1)C(c1ccccc1)c1nc2ccccc2[nH]1 (stereo not given)	1	1.6	3	nt	-14	nt	-0.3%
O=C1N/C(=N/N=C/c2ccc(O)cc2)SC1Cc1ccccc1 (stereo not given)	0	1.4	6	-5	-14	16%	-0.4%
COc1cccc(NC(=O)CN(C)C(C)C(=O)NC(=O)NC2CCCCC2)c1 (stereo not given)	-1	-2.3	0	2	0	nt	1.5%
CN(CCOC(=O)c1ccc2c(c1)OCCO2)Cc1ccccc1	-38	-4.2	-6	2	0	7%	-1.8%
COc1cc(C)nc(OCCNC(=O)COc2ccc(Cl)cc2Cl)n1	0	0.2	-2	9	11	-9%	1.4%
CC(C)CCNC(=S)NC1CCCC1	0	-2.7	-1	nt	2	6%	-0.9%
O=C(Oc1ccccc1OC(=O)N1CCOCC1)N1CCOCC1	-8	-2.9	7	6	1	8%	-1.7%
O=C(CSc1ncccc1-c1nc2ccccc2[nH]1)N1CCc2ccccc21	-15	0.3	2	?	-5	23%	10%
Cc1onc(-c2c(Cl)cccc2Cl)c1C(=O)c1c[nH]c(C(=O)NC2CC2)c1	3	1.5	0	11	-10	1%	4.0%
O=C(c1ccco1)N1CCN(Cc2cc(=O)oc3cc(O)ccc23)CC1	5	3.4	-2	?	-3	nt	-0.1%
CC(C)CN(CC(C)C)C(=O)c1cc2c(=O)n3ccccc3nc2s1	-6	0.0	18	-2	3	7%	4.4%
Cc1nc(SCC(=O)NCC2CCCO2)[nH]c(=O)c1C (stereo not given)	-4	-2.5	8	-3	-5	nt	0.7%
O=C(CSc1nnc2ccc(-c3ccncc3)nn12)Nc1ccc(F)cc1	-37	-2.8	-12	-15	-1	nt	1.8%
Cc1cccc(NC(=O)CCSc2ccccn2)c1	-7	-7.8	0	-23	-12	1%	-1.6%
CCC(C)C(=O)Nc1nc(C)c(-c2csc(Nc3ccc(Cl)cc3)n2)s1 (stereo not given)	-8	-1.1	-12	5	nt	-23%	1.4%
O=C(CC1Oc2ccccc2NC1=O)NCCCN1CCN(Cc2ccccc2)CC1 (stereo not given)	-5	-1.0	4	-5	5	-23%	1.7%
C/C(CC(=O)Nc1ccc(C)c(Cl)c1)=N\NC(=O)C1CCCCC1	-2	-3.0	6	17	-3	9%	-2.3%
O=C(OCN1C(=O)c2ccccc2C1=O)c1cccnc1SC(F)F	0	1.4	12	27	3	0%	-0.8%
CC1(C)CC(=O)C(C=NCCN2CCN(C(=O)C34CC5CC(CC(C5)C3)C4)CC2)=C(O)C1	1	-7.4	2	8	12	-19%	-1.7%
Cc1ccc(N(C(=O)c2snc(C(N)=O)c2N)C(C(=O)NCc2ccccc2)c2ccncc2)c(C)c1 (stereo not given)	2	4.9	-1	10	2	19%	1.7%
COc1ccc(NC(=O)C2Cc3c(-c4ccccc4Oc4ccccc4)ccnc3O2)cc1 (stereo not given)	2	13	-8	nt	0	nt	1.0%
CNC[C@@H]1Oc2ccc(NS(=O)(=O)c3ccc(OC)cc3)cc2CC(=O)N([C@H](C)CO)C[C@@H]1C	-12	-5.7	-4	nt	1	nt	-0.1%
O=C(C[C@@H]1C/C=C\CC[C@H](Cc2ccc(F)cc2)C(=O)OC[C@@H]2CCCN2C1=O)NCCO	-7	-7.2	-7	nt	2	nt	0.1%
COc1cc(NC(=O)CSCc2ccc(Cl)cc2Cl)c(C(=O)O)cc1OC	-2	-3.2	-5	10	-5	-13%	-1.2%
CCOc1ccc2nc3c(cc2c1)CN(CCOC)C(=NCCOC)S3	-12	-1.0	-4	-2	-4	-2%	0.8%
Cc1cc(NC(=O)COC(=O)C2CC(=O)N(c3ccccc3Cl)C2)no1 (stereo not given)	6	-5.4	1	9	-22	8%	1.7%
O=C1CCCCCCC(=O)[C@H](O)C[C@H](c2ccccc2)O1	nt	nt	5	nt	4	nt	2.7%
O=C(NCc1ccco1)c1c2c(nc3ccccc13)CCC2	4	-0.4	?	1	0	50µM*	-0.8%
CCN(c1ccccc1)S(=O)(=O)c1ccc(NC(=O)c2nc(S(C)(=O)=O)ncc2Cl)cc1	-65	-13	2	5	6	20µM*	-1.3%&5.4%
CCOc1ccc(Oc2nc(C)cc(OC)n2)nn1	-14	-3.2	0	9	0	7%	1.0%
CCOc1ccc(C(=O)COC(=O)CC)cc1	-23	0.0	11	-12	6	-4%	-1.3%
CCc1cc2cc(C)c(C)cc2nc1SCC(=O)Nc1cc(C)on1	-5	1.6	14	-6	nt	-3%	13%
COC(=O)C(Cc1ccc(O)cc1)NC(=O)C(C)Oc1ccccc1 (stereo not given)	7	-0.7	0	2	-8	-1%	-2.9%[38.3 µM]
Cc1ccc(CN2CCNC(=O)C2CC(=O)N(C)Cc2cnccn2)cc1 (stereo not given)	-3	-3.6	3	-5	6	3%	11%
NCCCCCCNS(=O)(=O)c1cccc2c(Cl)cccc12	-23	-7.3	0	nt	-6	63µM*!	0.1%&-1.7%&11%
COc1ccc(S(=O)(=O)N2CCCCC2)cc1NC(=O)C1CC(=O)N(c2ccc3c(c2)OCCO3)C1 (stereo not given)	15	1.3	-15	-6	1	nt	2.3%
O=C(CCCN1C(=O)S/C(=C\C=C\c2ccccc2)C1=O)Nc1ccc(C(=O)O)cc1	4	1.3	-2	-6	-5	-6%	-2.6%
COc1cccc(NC(=O)C2CCN(S(=O)(=O)c3ccc4[nH]c(=O)oc4c3)CC2)c1	-2	7.0	-12	16	-3	6%	4.2%
O=C(NCc1ccco1)c1ccc(-c2ccc(Cl)cc2)o1	-6	1.2	-21	-12	-8	12%	-1.5%
CN(CC(=O)Nc1ccc(Cl)c(C(F)(F)F)c1)C(=O)C1CSC2(C)CCC(=O)N12 (stereo not given)	-29	-1.5	2	3	-1	nt	2.7%
COc1ccc(C)cc1S(=O)(=O)N(CC(=O)O)c1ccc(C)cc1	-6	0.8	2	2	2	20%	-1.3%
CC(C)c1ccc(NC(=O)C2(C)Cc3c(-c4cccc(C(N)=O)c4)ccnc3O2)cc1 (stereo not given)	-7	4.2	-7	nt	-11	nt	4.2%
O=S(=O)(c1ccc(Cl)cc1)N(CCCN1CCOCC1)Cc1cccs1	-18	2.7	3	-9	nt	-29%	-0.8%
COc1ccc(/C=N/NC(=O)CCC(=O)Nc2ccc(Br)cc2)c(OC)c1	-14	0.7	-1	5	9	14%	-3.6%
O=C1NC[C@H](Cc2ccccc2)N(C[C@H]2CCCN2C[C@H](Cc2ccc(O)cc2)N2C[C@H](Cc3ccc(O)cc3)N(CC3CCCCCC3)C(=O)C2=O)C1=O	9	6.0	-11	nt	0	nt	2.1%
COC(=O)c1ccc2nc(NC(=O)C3CC3)sc2c1	-1	-4.7	1	-3	3	-12%	-0.4%
CCCCNC(=O)CSc1cc(=O)n(C)c2ccccc12	-6	-4.1	-5	-2	-3	5%	-1.3%
Cc1ccccc1NC(=O)CCCN1C(=O)C2CC=CCC2C1=O (stereo not given)	-5	-2.0	0	5	1	22%	0.4%

Four consecutive records out of the list so far, for reference:
SMILES	D2 potentiator	D2 ag	Six1-Eya2 inh	TRPV1 PAM	CtBP-E1A inh	Sfp PPTase inh	PINK1 modulator
O=C1NC[C@H](Cc2ccccc2)N(C[C@H]2CCCN2C[C@H](Cc2ccc(O)cc2)N2C[C@H](Cc3ccc(O)cc3)N(CC3CCCCCC3)C(=O)C2=O)C1=O	9	6.0	-11	nt	0	nt	2.1%
COC(=O)c1ccc2nc(NC(=O)C3CC3)sc2c1	-1	-4.7	1	-3	3	-12%	-0.4%
CCCCNC(=O)CSc1cc(=O)n(C)c2ccccc12	-6	-4.1	-5	-2	-3	5%	-1.3%
Cc1ccccc1NC(=O)CCCN1C(=O)C2CC=CCC2C1=O (stereo not given)	-5	-2.0	0	5	1	22%	0.4%

Further entries follow.
SMILES	D2 potentiator	D2 ag	Six1-Eya2 inh	TRPV1 PAM	CtBP-E1A inh	Sfp PPTase inh	PINK1 modulator
Cc1ccccc1Cn1c2ccccc2c2cnn(CC(=O)N3CCN(c4ccccc4)CC3)c(=O)c21	-1	-3.1	-8	-16	-5	-3%	0.7%
Cc1ccc(S(=O)(=O)NCc2c(Cl)cccc2Oc2ccccc2)cc1	-9	-3.7	1	4	12	3%	?
Nc1nc(Nc2ccccc2)nc(NCCO)c1[N+](=O)[O-]	-15	-3.3	-23	-2	-13	13%	-0.5%
CC1=NN(C(=O)c2ccc(Cn3ccc([N+](=O)[O-])n3)cc2)C(O)(C(F)(F)F)C1 (stereo not given)	-21	-2.0	2	-14	4	2%	2.4%
Cn1nnc2cc(C(=O)NC3CCCCC3)ccc21	-4	-0.4	6	-2	7	4%	-1.4%
COc1ccc(-c2csc(NC(=O)CCCc3cccs3)n2)cc1	3	-6.5	4	-2	9	19%	3.4%
c1ccc2c(c1)CCOC2CNCCCN1CCCCC1 (stereo not given)	-13	-3.4	6	-20	7	15%	0.5%
Cc1n[nH]c(C)c1S(=O)(=O)N1CCN(C(=O)c2ccco2)CC1	1	-2.6	10	-10	11	4%	-1.4%
Cc1ccc(-c2c(C(=O)N/N=C/c3ccco3)nnn2-c2nonc2N)cc1	-10	-6.4	-2	-11	-12	8%	-0.5%
COC(=O)c1cc(C)c(C)cc1NC1OC(CO)C(O)C1O (stereo not given)	6	1.9	8	nt	-4	nt	-0.8%
CCOC(=O)C1CCN(C2=NC(=O)/C(=C/c3ccc(Cl)cc3)S2)CC1	-9	-0.4	1	-19	2	-10%	1.3%
CCN(CC)CCNC(=O)c1ccc2c(c1)NC(=O)c1ccccc1S2	-11	-0.4	-3	-3	-7	7%	-1.4%

An unsorted share of the library, and some 3.7% of all compounds hit somewhere here.
